Bioassay records: PubChem BioAssay, several laboratories
A1 inh: inhibitors of the anti-apoptotic protein A1, read as caspase activation; actives 0.066% (n = 330,000); AID 2462; caspase activation, % (concentration not given with the values); MEF A1-2A-BIM cells, Caspase-Glo 3/7 luminescence, 3 h; percent of clofoctol response, vehicle zero;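 active means over half of replicate activation scores above 10%, or exactly half above 10 with the replicate mean above 10; inconclusive means replicate mean below 10 yet half the replicates above 10; inactive means over half of replicates below 10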;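 further: wells of about 30 µL received 50 nL stock; many hits fall short of the cut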
RanGTP-Imp inh: inhibitors of RanGTP-importin-beta interaction, primary screen, biochemical, FRET, CFP-Ran, YFP-importin-beta, homogeneous | inhibition, % (no concentration beside the values) | cell-free CFP-Ran/YFP-importin-beta FRET ratio | actives 1.1% (n = 300,000) | AID 2216;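 active means most replicates above 15%; inconclusive means exactly half above 15%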;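 further: 0% = DMSO wells and 100% = Ran loaded with GDP instead of GTP; wells of about 40 µL received 100 nL stock; the first replicate is given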
T cruzi inh: T. cruzi replication inhibition; T. cruzi beta-gal in NIH3T3, luminescence, 90 h; inhibition, % (test concentration not listed); actives 1.4% (n = 300,000); AID 1885;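 active means mean inhibition across valid replicates above about 55%, limit read from the data; inconclusive means mean below that limit but half or more replicates reach it; inactive means mean below it, under half of replicates reach it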;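 further: signal also drops with host cell toxicity which is not excluded here; 0% = plate median of DMSO wells and 100% = zero luminescence signal; higher percent means less beta-gal luminescence so fewer parasites; stock transfer was 50 nL into about 50 µL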
Beta cell apopt: blocks beta cell apoptosis | INS-1E cytokine-induced death, ATP luminescence, 48 h; percent of positive-control rescue, neutral wells zero | protection from apoptosis, % (test concentration not listed) | actives 0.8% (n = 300,000) | AID 435005;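 active means all replicates at 75% or more, or half of them and the mean; inconclusive means half reach 75% but not the mean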;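 further: 0% = cytokine-treated negative control wells and 100% = positive control rescue; higher means more ATP so stronger rescue from cytokine killing; wells of about 40 µL received 100 nL stock; the first replicate is given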
UCH37 inh: human UCH37 deubiquitinating enzyme inhibition | actives 0.33% (n = 330,000) | inhibition, % (concentration not given with the values) | Q9Y5K5 | purified proteasome/UCH37, Ub-AMC cleavage fluorescence;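 active means mean of two replicates above 20%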;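 further: 0% = compound-free wells with enzyme and 100% = wells lacking proteasome; stock transfer was 100 nL into about 20 µL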
Target sequence (Q9Y5K5 whole entry, looked up): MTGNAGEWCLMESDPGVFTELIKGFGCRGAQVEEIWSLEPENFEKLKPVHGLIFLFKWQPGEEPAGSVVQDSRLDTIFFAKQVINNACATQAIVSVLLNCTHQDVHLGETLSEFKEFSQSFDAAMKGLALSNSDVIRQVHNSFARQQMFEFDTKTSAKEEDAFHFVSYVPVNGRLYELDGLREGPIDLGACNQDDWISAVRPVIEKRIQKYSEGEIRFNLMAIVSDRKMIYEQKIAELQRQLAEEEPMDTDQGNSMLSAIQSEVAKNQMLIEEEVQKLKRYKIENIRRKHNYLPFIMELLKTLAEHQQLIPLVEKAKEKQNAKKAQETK
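System: Proteasome-associated human UCH37 deubiquitinase; Input: 0.15 nM proteasome in added enzyme buffer; Also added: Ub-AMC substrate from 1 µM stock; Incubation: 30 min compound-proteasome preincubation then 25 min substrate reaction, room temperature; Detection: fluorescence, ex 355 nm, em 460 nm; Read-out: % inhibition of Ub-AMC cleavage fluorescence; Benchmarks: no-proteasome and no-compound wells.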
Beta2AR agonist: activates human beta-2 adrenergic receptor causing internalization. P07550. Am2.2-beta2AR cells, FAP receptor internalization, flow cytometry; reference of the scale not given here. response, % (concentration not given with the values). actives 0.43% (n = 340,000). AID 504454;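 active means response above a set limit, near 3 SD of response in nonfluorescent compounds, cut at about 42% in these data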;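 further: stock transfer was 100 nL into about 11 µL; a reference agonist was the positive control; negative values mostly stem from fluorescent compounds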
Target sequence (P07550 whole entry, looked up): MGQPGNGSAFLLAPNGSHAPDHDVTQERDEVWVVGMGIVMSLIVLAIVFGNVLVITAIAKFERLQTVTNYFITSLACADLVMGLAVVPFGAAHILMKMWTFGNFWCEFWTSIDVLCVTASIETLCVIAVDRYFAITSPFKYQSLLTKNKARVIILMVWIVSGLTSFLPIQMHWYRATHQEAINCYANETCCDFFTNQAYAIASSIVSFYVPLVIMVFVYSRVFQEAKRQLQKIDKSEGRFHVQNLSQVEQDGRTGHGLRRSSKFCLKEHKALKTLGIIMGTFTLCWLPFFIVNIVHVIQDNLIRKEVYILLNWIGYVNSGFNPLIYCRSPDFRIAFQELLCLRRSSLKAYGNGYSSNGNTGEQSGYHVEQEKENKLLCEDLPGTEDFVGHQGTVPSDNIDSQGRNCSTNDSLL
LANA-H2B inh: blocks KSHV LANA binding to histone H2A/H2B; cell-free LANA-H2A/H2B peptide, fluorescence polarization; Q9QR71; inhibition, % (test concentration not listed); actives 0.6% (n = 320,000); in the data active means inhibition mostly above about 10%, no sharp cut-off; inactive means mostly below about 6.7%;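 further: stock transfer was 7.5 nL into about 10 µL; 0% = median of vehicle wells and 100% = median of positive control wells; one replicate is shown; the record names a cut of 25% in any replicate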
Calb FLC: affects C. albicans growth with fluconazole; actives 0.57% (n = 300,000); growth inhibition, % (test concentration not listed); C. albicans CaCi-2 (fluconazole-resistant clinical isolate) + fluconazole, Alamar Blue growth, 48 h; AID 1979;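 active means most replicates above 75%; inconclusive means exactly half above 75%; inactive means most below 75%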;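 further: all wells also contain fluconazole at 8 µg/ml as a sub-toxic cotreatment; 0% = median of DMSO wells and 100% = median of geldanamycin control wells; wells of about 8 µL received 7.5 nL stock; the first replicate is given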
* hit, by the source's call; ? = inconclusive; nt = not tested or not shown. Rows are unselected. About 4.3% of those tested had a hit in this group.

Every second line gives: A1 inh, T cruzi inh, RanGTP-Imp inh, UCH37 inh, Beta2AR agonist, LANA-H2B inh, Beta cell apopt, Calb FLC
1) COCCN(C(=O)COC(=O)CCCOc1ccccc1)c1c(N)n(Cc2ccccc2)c(=O)[nH]c1=O
→ 0.8, -4, -0.8, 0.6, -3, 4.0, -1, 2
2) COc1ccc(C(=O)NC2CCN(S(=O)(=O)Cc3ccccc3)CC2)c(OC)c1
→ -0.4, 18, ?, 3.5, 2, -2.4, 3, -3
3) CCOc1ccc(CCNC(=O)CN2C(=O)NC3(CCCCC3C)C2=O)cc1OCC (configuration not stated)
→ 0.9, 4, 2.6, 1.4, -4, nt, -9, -2
4) COc1ccc(-c2c(-c3ccc(OC)nc3)c3ccccc3n2C)cc1
→ 0.3, nt, nt, 0.4, 7, 1.2, 1, nt
5) Cc1cc(C)n(-c2ccc(F)cc2)c(=O)c1C#N
→ -0.1, -9, ?, -0.9, 4, -0.2, -4, 0
6) COc1ccc(NC(=O)CCOc2ccc(C)cc2)cc1S(=O)(=O)N1CCCCC1
→ 0.5, nt, nt, 4.3, -8, -2.2, -1, nt
7) COc1ccc(C(C)C)cc1S(=O)(=O)NCC1CCCO1 (configuration not stated)
→ 0.8, -6, 0.6, 1.7, -4, 2.4, nt, -2
8) O=C1c2ccccc2C(=O)N1CCCc1cn(C[C@H]2CC[C@@H]([C@@H]3CC[C@H](Cn4cc(CCCN5C(=O)c6ccccc6C5=O)nn4)O3)O2)nn1
→ 0.5, -3, 9.1, 0.8, -7, 1.5, -6, 24
9) Cc1ccc(S(=O)(=O)Nc2ccc(F)c(S(=O)(=O)N3CCOCC3)c2)cc1
→ -1.4, nt, nt, 1.6, 3, -2.5, 5, nt
10) Cc1ccc(NC(=S)N2CCc3[nH]c4ccccc4c3C2)cc1
→ 0.8, 17, 2.1, 2.1, -4, -1.2, -14, 3
11) CCCCNC(=O)c1cn(CC(C)C)c(=O)c2c1c1ccccc1n2C
→ -2.6, 4, 2.5, -44, 7, 1.0, 5, -3
12) COc1cc(OC)c(C(=O)OCC(=O)N(Cc2ccccc2)C(C)(C)C)cc1OC
→ -0.1, -2, -0.1, 5.7, -7, 7.7, -1, 2
13) O=C1C2C3C=CC(C3)C2C(=O)N1/N=C/c1cn(Cc2ccccc2)c2ccccc12 (configuration not stated)
→ -0.5, 15, 4.0, nt, 8, 5.7, -1, -5
14) O=C(NCc1ccccc1)c1ccc(N2C(=O)C3CCCCC3C2=O)cc1 (configuration not stated)
→ 0.4, -14, ?, 5.5, 4, -0.6, -2, -1
15) COc1ccc(-c2nnn(CC(=O)N3CCN(c4ccccc4OC)CC3)n2)cc1
→ 0.1, 8, 3.1, 3.1, 6, -3.6, 2, 0
16) Cc1ccc(-c2cc(N)n(-c3ccc(F)cc3)n2)cc1
→ -2.9, 2, 1.4, 0.5, -7, -2.4, 7, 3
17) CCCCCCNc1c([N+](=O)[O-])cc(C)cc1[N+](=O)[O-]
→ -0.9, -5, 6.2, 3.2, -2, 0.1, 1, 5
18) O=C(NCc1cccnc1)Nc1ccc(Cl)c(Cl)c1
→ 1.1, 30, 4.4, 7.1, 7, -2.5, -12, 2
19) CCN(c1ccccc1)S(=O)(=O)c1ccc2c(c1)N(C(C)=O)CCS2
→ 0.6, 0, 2.1, 0.3, 4, -2.8, -4, -9
20) CCN1C(=O)[C@H]2[C@@H](c3ccc(-c4cccc(Cl)c4)cc3)N[C@@](C)(C(=O)OC)[C@H]2C1=O
→ 0.0, 3, 3.2, 1.1, 20, 4.3, 1, 15

Every second line gives: A1 inh, T cruzi inh, RanGTP-Imp inh, UCH37 inh, Beta2AR agonist, LANA-H2B inh, Beta cell apopt, Calb FLC
21) COc1cccc2c(=O)c(SC(F)(F)C(F)C(F)(F)F)c(C)[nH]c12 (configuration not stated)
→ 0.8, 16, -2.9, -41, -1, 2.1, 7, -6
22) Cc1ccc(NC(=O)CSc2nnc(-c3ccncc3)o2)cc1
→ 0.6, -11, -3.2, 2.3, 8, -2.1, -15, -2
23) CN1C(=O)[C@H]2[C@@H](/C=C/c3ccccc3)N3C(=O)CN(Cc4ccc(-c5ccccc5)cc4)C(=O)[C@@]3(Cc3ccccc3)[C@H]2C1=O
→ 0.4, 20, -0.9, 0.2, 3, 0.1, 4, 5
24) Cc1onc(C(=O)NCc2ccc(F)cc2)c1[N+](=O)[O-]
→ -0.2, -7, 1.9, 3.3, -3, 0.3, 2, 12
25) O=C(CCc1ccccc1Cl)N1CCN(S(=O)(=O)c2ccccc2)CC1
→ -0.9, nt, nt, -1.2, -1, 2.1, -2, nt
26) Cc1cc(CN(C)C(=O)c2cc(COc3ccc(C)c(C)c3)on2)n[nH]1
→ -0.1, -7, ?, -3.7, 1, 4.9, 0, 2
27) Cc1ccc(CNC(=O)CN2CCN(Cc3ccc(C)cc3)C2=O)cc1
→ 0.5, 5, 0.1, 4.0, -1, -4.9, 4, 11
28) Nc1nnc(-c2ccccc2F)s1
→ 1.6, -7, ?, 4.2, 1, -2.4, nt, 8
29) N#C/C(=C\c1ccc2c(c1)OCO2)C(N)=S
→ -0.7, nt, 5.9, 4.5, 9, 0.8, 7, 7
30) C=CCn1c(COc2ccc(F)cc2)nnc1SCC(=O)NC1CCS(=O)(=O)C1 (configuration not stated)
→ 0.3, -5, -3.2, 3.2, -4, 3.6, 0, 6
31) O=S(=O)(CCN1C=CC(C(F)(F)F)=NCC1)c1ccc(Cl)cc1Cl
→ -1.3, -2, 0.4, 6.3, -11, 7.8, -5, -1
32) COC(=O)c1c(SCc2ccc(C#N)cc2)nc(=O)[nH]c1C
→ -0.1, -4, 7.2, 0.3, 1, 4.6, -2, 1
33) CN(C)C(CNc1ccc(S(C)(=O)=O)cc1[N+](=O)[O-])Cc1ccccc1 (configuration not stated)
→ 1.8, 39, 4.7, 1.0, -14, 6.1, nt, 4
34) CCN(CC)S(=O)(=O)c1ccc2c(c1)c(=O)c(C(=O)NCc1ccco1)cn2C
→ 0.1, -7, 7.1, 3.7, 2, 9.4, 0, 1
35) C=CCc1cccc(C=Nc2cc(Br)ccc2O)c1O
→ -1.6, 3, 1.4, 5.0, 6, -3.4, -13, -1
36) CC(C)OCCCNC(=S)Nc1ccc2nc3n(c(=O)c2c1)CCCCC3
→ 0.3, -1, 6.0, 1.6, -8, -4.8, 1, -16
37) CC(OC(=O)c1cn(-c2ccccc2)nc1-c1cccnc1)C(N)=O (configuration not stated)
→ -0.9, -8, -1.4, -0.2, -8, -3.8, -7, 3
38) CCOC(=O)N1CCN(C(=O)C2CCN(S(C)(=O)=O)CC2)CC1
→ 1.0, -4, 6.3, 2.2, 7, -10.0, -4, 2
39) COc1ccc(CCNC(=O)CSc2nc3ccsc3c(=O)n2CC2CCC(C(=O)O)CC2)cc1OC (configuration not stated)
→ 0.9, -19, 0.3, 3.3, 3, -4.7, -2, 1
40) Cc1ccc(S(=O)(=O)Nc2nc(C)cc(-n3nc(C)cc3C)n2)cc1
→ 0.7, -4, -0.5, 6.3, 22, 1.2, -13, 62

Every second line gives: A1 inh, T cruzi inh, RanGTP-Imp inh, UCH37 inh, Beta2AR agonist, LANA-H2B inh, Beta cell apopt, Calb FLC
41) O=C(Cc1cccs1)N1CCC(c2nc3c(nnn3Cc3ccccc3)c(=O)[nH]2)CC1
→ 0.3, 10, -0.3, 1.3, 0, 3.8, -4, 0
42) O=C(CCSc1ccccc1)Nc1nccs1
→ -0.7, -12, -5.2, 1.0, -3, -0.3, -10, -27
43) CCN(CC)C(=O)Cn1cc(S(=O)(=O)Cc2cccc([N+](=O)[O-])c2)c2ccccc21
→ 0.2, 10, -3.2, -2.6, -5, -1.8, 2, -2
44) COc1cc(NC(=O)CN2C(=O)COc3ccc(S(=O)(=O)N4CCOCC4)cc32)cc(OC)c1
→ 0.3, -6, -1.8, 6.2, 2, 5.7, -2, -3
45) COc1ccc(C(=O)c2sc(Nc3cccc(OC)c3)c(C(=O)Nc3cccc(C)c3C)c2N)cc1
→ -0.6, 2, -1.3, -173, 21, 1.4, 13, 4
46) COc1ccc2[nH]c(=O)c(CN(CCc3ccccc3)Cc3nnnn3CC3CCCO3)cc2c1 (configuration not stated)
→ -0.3, 6, -13, -35, 20, -2.5, 1, 16
47) CCC(=O)NNc1ncnc2c1cnn2-c1ccccc1
→ -0.1, -11, 0.5, 3.4, -5, 5.3, -4, -13
48) CC(=O)NC1C(=O)N(Cc2ccccc2)c2ccc(Br)cc21 (configuration not stated)
→ -0.3, -5, 2.1, 0.6, 4, -7.0, -1, -12
49) CCC1CCCCN1C(=O)COC(=O)CN(C)S(=O)(=O)c1ccc(NC(C)=O)cc1 (configuration not stated)
→ 0.4, -7, -2.0, -1.5, 24, 1.5, 2, -4
50) COC(=O)C(Cc1ccccc1)OS(N)(=O)=O (configuration not stated)
→ 3.7, -2, 0.6, 0.8, 0, 3.2, -3, 7
51) CCOC(=O)C1CCN(c2nc3ccccc3n2CC(=O)c2ccccc2)CC1
→ 2.2, 5, 21*, 1.0, -3, -4.6, -6, -35
52) O=C(Nc1nc2ccccc2n1CCN1CCCC1)c1ccc(Cl)cc1
→ 0.9, nt, nt, -16, -6, 6.5, 23, nt
53) Cc1nc([N+](=O)[O-])c(C(=O)OCc2ccc(C#N)cc2)n1C
→ -0.4, -12, -2.1, 0.3, -4, 4.5, 1, 39
54) CCCCn1c(N)c(N(CC)C(=O)c2ccc([N+](=O)[O-])c(C)c2)c(=O)[nH]c1=O
→ -0.3, -3, -0.1, 6.0, 3, -15, 4, -4
55) COc1cccc(N/C(N)=N/c2nc(CSc3ccccn3)cc(=O)[nH]2)c1
→ 0.6, -7, -1.5, 5.5, nt, -9.6, 2, -6
56) Cc1cccc(NC(=O)C(C)SCc2ccccc2)c1 (configuration not stated)
→ 3.0, 3, -1.8, 1.1, -7, 8.7, 1, -30
57) CCn1c(=S)sc2c(=O)n(CC(=O)NC(C)CCc3ccccc3)c(C)nc21 (configuration not stated)
→ -0.1, 7, 4.3, 1.7, 2, 1.9, 1, 5
58) COC(=O)[C@H](Cc1ccccc1)NC(=O)O[C@@H]1C(=O)c2cc(Br)ccc2O[C@H]1c1cccc(OC)c1
→ -0.1, -7, 4.4, 0.7, nt, -1.5, -5, 33
59) COc1ccccc1NC(=S)N1CCN(c2ccccc2F)CC1
→ -0.5, -12, ?, -0.1, -4, 8.1, -4, -50
